From PubChem BioAssay
GIV Gai3 FP: inhibitors of GIV peptide binding to Galpha-i3, primary screen, biochemical, fluorescence polarization, FITC-GIV GBA peptide, rat Galphai3; 90 min; stronger effect = lower value; scaled: aluminum fluoride 0%, vehicle 100%; percent of control (FP), % (test concentration not listed); hit rate 0.42% among 210,000; AID 1224905, 2016;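 active means replicate mean at 85% of control or lower, very high polarization wells dropped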;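 further: wells of about 15 µL received 100 nL stock; the first replicate is given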
Target sequence (P08753 whole entry, looked up): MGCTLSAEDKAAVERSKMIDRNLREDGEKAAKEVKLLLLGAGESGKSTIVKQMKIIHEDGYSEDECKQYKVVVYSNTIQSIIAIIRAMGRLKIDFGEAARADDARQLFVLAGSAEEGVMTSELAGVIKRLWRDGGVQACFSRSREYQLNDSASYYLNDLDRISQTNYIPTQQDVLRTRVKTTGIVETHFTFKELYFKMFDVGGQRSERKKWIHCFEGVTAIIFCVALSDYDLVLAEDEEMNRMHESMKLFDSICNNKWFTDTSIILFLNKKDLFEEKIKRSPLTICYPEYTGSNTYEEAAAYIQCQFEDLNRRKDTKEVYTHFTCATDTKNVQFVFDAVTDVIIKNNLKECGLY
HCMV UL50-53 inh: inhibitors of HCMV UL50-UL53 interaction, biochemical, HTRF; normalized percent inhibition; HCMV UL50-UL53 nuclear egress complex (human cytomegalovirus); inhibition, % (test concentration not listed); AID 1918969, 2023; hit rate 0.15% among 190,000;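 active means both replicates at 50% or more, plus weaker picks with an unusually low signal ratio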;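 further: stock transfer was 100 nL into about 20 µL; 0% = negative control wells and 100% = wells with untagged competitor protein; inactives centre near -12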
Sa growth inh: S. aureus growth inhibition at 42 and 30 °C, primary screen, LtaS inhibitor project, RN4220, two temperatures. hit rate 0.53% among 170,000. relative growth, % (test concentration not listed). OD600, 20 h, 42 °C; stronger effect = lower value. AID 720641, 2013;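 active means growth at 42 °C up to 50% and 20 or more points under that at 30 °C, or under 10% at both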;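 further: 300 nL library stock went into each well; scaled to the means of positive and negative controls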
Sa growth inh second temp: further read-out of Sa growth inh, marked with its call; relative growth, %; measured here: growth at 30 °C;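 optical density after 20 h as mean of two plates; 100% = untreated growth and lower means inhibition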
Numbers without * were called inactive; x = no result given; & = joins results of further samples.

Short keys: A = GIV Gai3 FP; B = HCMV UL50-53 inh; C = Sa growth inh; D = Sa growth inh second temp
> O=C(NCc1ccccc1)c1ccc(CS(=O)(=O)c2c(Cl)cccc2Cl)o1
  A: 103; B: -24; C: 102; D: 88

> CC(OC(=O)c1ccc(-n2cnnn2)cc1)c1ccccc1Cl (configuration not stated)
  A: x; B: -18; C: 86; D: 87

> CC(=O)N1CCN(C(=O)C23CC4CC(C)(CC(C)(C4)C2)C3)CC1
  A: 101; B: -15; C: 89; D: 80

> Oc1ccccc1C1N(Cc2ccccc2)CCN1Cc1ccccc1
  A: 104; B: x; C: 108; D: 80

> CN(C)CCNC(=O)c1ccc(-n2c(-c3ccccc3)nc3cccnc32)cc1
  A: 83*; B: -15; C: 95; D: 91

> COC(=O)c1ccc(Cl)cc1NC(=O)N1CC=C(c2c[nH]c3ccccc23)CC1
  A: 176; B: x; C: 128; D: 44

> CCCC(=O)Nc1ccccc1Sc1nc(Cl)nn1Cc1ccccc1
  A: 97; B: -20; C: x; D: x

> CCCCNc1nc2ccccc2n1Cc1ccc(C#N)cc1
  A: x; B: -10; C: 108; D: 102

> O=C1Nc2c(c3ccccc3oc2=O)Nc2ccccc21
  A: 106; B: -23; C: 98; D: 83

> Cc1cccc(-c2nc(CN3N=C(N4CCOc5ccc(Cl)cc54)CCC3=O)c(C)o2)c1
  A: 105; B: x; C: 105; D: 85

Record cards (already shown). Values in the order: GIV Gai3 FP	HCMV UL50-53 inh	Sa growth inh	Sa growth inh second temp
Oc1ccccc1C1N(Cc2ccccc2)CCN1Cc1ccccc1 is listed with 104	x	108	80
COC(=O)c1ccc(Cl)cc1NC(=O)N1CC=C(c2c[nH]c3ccccc23)CC1 is listed with 176	x	128	44
CC(OC(=O)c1ccc(-n2cnnn2)cc1)c1ccccc1Cl (configuration not stated) is listed with x	-18	86	87

Continued:
Short keys: A = GIV Gai3 FP; B = HCMV UL50-53 inh; C = Sa growth inh; D = Sa growth inh second temp
> O=c1[nH]c(CSc2nnc(Cc3cccs3)n2C2CCCCC2)nc2ccsc12
  A: x; B: -8; C: 85; D: 85

> CCCn1nc(C(=O)O)ccc1=O
  A: x; B: -15; C: 86; D: 89

> Cc1cc(C)c2nc(N(Cc3cccnc3)C(=O)CCS(=O)(=O)c3ccccc3)sc2c1
  A: 102; B: x; C: 138; D: 76

> O=C(C(C(=O)N1CCCCC1)C12CC3CC(CC(C3)C1)C2)N1CCCCC1
  A: 106; B: 15; C: 89; D: 95

> O=C(CSc1nc(C(F)(F)F)nc2ccccc12)N1CCNC1=O
  A: x; B: -1; C: 99; D: 106

> COC(=O)c1scc(-c2ccc(C)cc2)c1S(=O)(=O)N1CCN(c2ccc(C(C)=O)cc2)CC1
  A: 105; B: x; C: 110; D: 97

> O=C(CC1CCN(C(=O)Nc2ccccc2)CC1)NCCCN1CCC(N2CCCCC2)CC1
  A: 96; B: -26; C: x; D: x

> FC(F)(F)c1cccc(-c2nnc(-c3ccncc3)o2)c1
  A: 100; B: -13; C: 90; D: 88

> c1csc(-c2noc(-c3ccno3)n2)c1
  A: 98; B: 2; C: 108; D: 110

> CCOC(=O)c1ccccc1NC(=O)CSc1nc2c(oc3ccccc32)c(=O)n1C1CCCC1
  A: 98; B: 2; C: 92; D: 97

> Cc1ccc(C)c(Cn2nc(-c3cc(C)ccc3C)ccc2=O)c1
  A: 105; B: -11; C: 77; D: 67

> CC(Sc1cccc[n+]1[O-])C(=O)NC1CCCCC1C (configuration not stated)
  A: x; B: -5; C: 103; D: 100

> CC(C)CN(CC(C)C)CC(O)Cn1cc(/C=C/C(=O)c2ccccc2)c2ccccc21 (configuration not stated)
  A: 111; B: -8; C: 108; D: 92

> O=C(NC1CCCCC1)N1CCN(C2CCCCC2)CC1
  A: 105; B: -12; C: 128; D: 103

> COc1ccc(Cn2c(SCC#N)nc3c(sc4ccccc43)c2=O)cc1
  A: 102; B: 6; C: 110; D: 89

> O=C(O)c1ccc2c(c1)C1c3ccccc3CC1C(c1cccc(Cl)c1)N2 (configuration not stated)
  A: 97; B: x; C: 60; D: 40

> CC1CN(C(=O)c2ccccc2C(=O)c2ncc[nH]2)CC(C)O1 (configuration not stated)
  A: x; B: -19; C: 94; D: 92

> C=CCn1c(C(O)c2ccccc2)n[nH]c1=S (configuration not stated)
  A: 102; B: 2; C: 105; D: 108

> CCOc1ccc(N2C(=O)CC(Sc3ncccc3C(=O)O)C2=O)cc1 (configuration not stated)
  A: 99; B: -16; C: 94; D: 73

> CCN1CCN(c2cc(C(=O)O)c3cc(NS(=O)(=O)c4ccc(C)c(C)c4)ccc3n2)CC1
  A: 99; B: -53; C: x; D: x

A second format for part of the listing above.
Every second line gives: GIV Gai3 FP | HCMV UL50-53 inh | Sa growth inh | Sa growth inh second temp
O=C(NC1CCCCC1)N1CCN(C2CCCCC2)CC1
    105 | -12 | 128 | 103
C=CCn1c(C(O)c2ccccc2)n[nH]c1=S (configuration not stated)
    102 | 2 | 105 | 108

The list continues:
Short keys: A = GIV Gai3 FP; B = HCMV UL50-53 inh; C = Sa growth inh; D = Sa growth inh second temp
> Cc1ccc(NC(=O)CCSCCc2ccccn2)cc1
  A: 97; B: x; C: 110; D: 88

> CCN(CC)C(=O)c1sc2ccccc2c1Cl
  A: 102; B: -14; C: 110; D: 99

> CCSC1=C(C#N)C(c2ccccc2Cl)C(C#N)=C(N)N1 (configuration not stated)
  A: x; B: -56; C: 57; D: 58

> COc1ccc(NC(=O)CCn2c(=O)c3cccn3c3cccnc32)cc1Cl
  A: 102; B: x; C: 124; D: 100

> Cn1c(COc2ccccc2C(C)(C)C)nc2ccccc21
  A: 106; B: -2; C: 83; D: 90

> Cn1cnc2cc(NC(=O)c3cccs3)ccc21
  A: 100; B: -21; C: 90; D: 82

> CCOC(=O)c1c(C)c(C(=O)N2CCCCC2)c(C)n1C
  A: 102; B: 5; C: 108; D: 86

> Cc1nc(Cc2nnc(SCCCn3c(=O)[nH]c4ccccc43)o2)cs1
  A: x; B: -38; C: 105; D: 82

> COC(=O)c1c(CC(C)C)csc1N
  A: x; B: -30; C: 87; D: 87

> O=C(Nc1ccc(F)cc1)c1ccc(-n2nnc3cccnc32)cc1
  A: 124; B: -42; C: x; D: x

> COc1c(C)cc(NS(=O)(=O)c2ccc3c(c2)OCCO3)cc1C
  A: 105; B: -8; C: 110; D: 89

> NCC1(N2CCCCC2)CCCCC1
  A: 104; B: -16; C: 121; D: 83

> O=C(CC1c2ccccc2CCN1S(=O)(=O)c1ccc(F)cc1)NCc1ccc2c(c1)OCO2 (configuration not stated)
  A: 110; B: -9; C: x; D: x

> CCCn1c(=O)[nH]c2cc(-c3noc(CN4C(=O)COc5ccccc54)n3)ccc21
  A: 106; B: -14; C: x; D: x

> Cc1ncc(CO)c2cc(C(N)=S)c(=Nc3ccc(S(N)(=O)=O)cc3)oc12
  A: 104; B: -107; C: 81; D: 87

> CCN1CCCCCC1CO (configuration not stated)
  A: 106; B: -10; C: 97; D: 99

> O=C(COC(=O)C1CCC1)c1cc2ccccc2o1
  A: x; B: -95; C: 111; D: 89

> CCOc1cc(CO)cc(Br)c1OCc1ccc(C(=O)O)cc1
  A: 101; B: -23; C: 79; D: 64

> CCOc1ccc(OCC)c(Nc2c(C(=O)N3CCCCC3)cnc3ccc(F)cc23)c1
  A: 101; B: -15; C: x; D: x

> N#Cc1c(Nc2ccccc2)sc(N)c1C(=O)c1ccccc1
  A: x; B: -12; C: 118; D: 93

Records listed above that bear a hit mark in GIV Gai3 FP.
SMILES | GIV Gai3 FP | Sa growth inh second temp
CN(C)CCNC(=O)c1ccc(-n2c(-c3ccccc3)nc3cccnc32)cc1 | 83* | 91

Next entries.
Short keys: A = GIV Gai3 FP; B = HCMV UL50-53 inh; C = Sa growth inh; D = Sa growth inh second temp
> O=C(CC1N=C2c3ccccc3N=C(SCC(=O)Nc3ccccc3F)N2C1=O)NCc1ccc2c(c1)OCO2 (configuration not stated)
  A: 101; B: -20; C: 94; D: 69

> Cc1sc2c(c1C)CSC(C(=O)NCCc1ccc(S(N)(=O)=O)cc1)=C2
  A: 105; B: -40; C: x; D: x

> CCS(=O)(=O)Cc1ccccc1
  A: 103; B: -6; C: 109; D: 86

> COCCCn1c(-c2cccs2)nc2c(c(=O)c3ccccc3n2C)c1=O
  A: 101; B: -20; C: 94; D: 77

> Cc1ccc(N2C(=O)C(CC(=O)Nc3ccccc3)N(CCC3=CCCCC3)C2=O)cc1 (configuration not stated)
  A: 97; B: 6; C: 95; D: 75

> CCN(CC)c1ccc(NC(=O)C2CCN(S(=O)(=O)c3cnc[nH]3)CC2)c(C)c1
  A: 105; B: -22; C: 105; D: 87

> COc1ccc(OCC(O)CN2CCCCC2)cc1 (configuration not stated)
  A: 104; B: -20; C: 89; D: 84

> CC1CCCCN1C(=O)Cn1c(=O)n(-c2ccccc2)c(=O)c2c3c(sc21)CCC3 (configuration not stated)
  A: 102; B: -1; C: 99; D: 90

> O=C(/C=C/C(=O)N1CCN(c2ccccc2F)CC1)N1CCN(c2ccccc2F)CC1
  A: x; B: -31; C: 102; D: 81

> CCc1ccc(CN(Cc2ccco2)C(=O)c2ccc(C)cc2)cc1
  A: 102; B: -28; C: 99; D: 79

> CCOc1ccccc1CN1C(=O)c2ccc(-c3ccccc3)n2CC1(C)C(=O)NC1CCCC1 (configuration not stated)
  A: 99; B: -8; C: x; D: x

> CCC(Sc1nc2ccccc2c(=O)n1CCc1ccc(OC)c(OC)c1)C(=O)N(CC)CC (configuration not stated)
  A: 105; B: x; C: 73; D: 82

> Cc1ccc(N2C(=O)N(CC(=O)Nc3ccccc3)c3ccccc3S2(=O)=O)cc1Cl
  A: 101; B: x; C: 122; D: 80

> CC(C)/C=N/NC(=O)c1ccccc1
  A: 101; B: -20; C: 91; D: 96

> Cc1ccc(SCc2nnc(-c3c(-c4ccccc4)noc3C)o2)cc1C
  A: x; B: -23; C: 100; D: 90

> C/C(Nc1ccccc1)=C1\C(=O)C=C(c2ccco2)CC1c1ccco1 (configuration not stated)
  A: x; B: -14; C: 95; D: 80

> CCN(c1ccccc1)S(=O)(=O)c1nnc(NC(=O)c2ccco2)s1
  A: 103; B: -10; C: 82; D: 55

> Cc1ccc(NC(=O)c2ccc3[nH]c(C)cc(=O)c3c2)c(C)c1
  A: 101; B: -16; C: 104; D: 86

> Cc1ccc(NC(=O)Nc2ccccc2Sc2cc(C)nc3ncnn23)c(Cl)c1
  A: 104; B: -28; C: x; D: x

> Cc1ccnc(NC(c2cccnc2)c2c(NC(=O)c3ccccc3)sc(C)c2C)c1 (configuration not stated)
  A: 108; B: -19; C: x; D: x

> O=c1[nH]c2cc3c(cc2c(=O)n1CCCc1nc(-c2cccc(Br)c2)no1)OCO3
  A: 105; B: -7; C: x; D: x

> CCOC(=O)C1CCCN(C(=O)c2ccccc2NC(=O)c2nsc3ccccc23)C1 (configuration not stated)
  A: 108; B: x; C: 101; D: 99

> COc1ccc(NC(=O)CSc2nnc3[nH]c(=O)c(C)nn23)cc1Cl
  A: x; B: -10; C: 65; D: 90

> Cc1ccc(N(Cc2nc3nc(C)cc(=O)n3[nH]2)S(=O)(=O)c2ccc(C)cc2)cc1
  A: 107; B: -5; C: x; D: x

> CCC1C/C(=C\c2sccc2C)C(=O)/C(=C/c2sccc2C)C1 (configuration not stated)
  A: 106; B: x; C: 112; D: 86

> CCCC(=O)Nc1ccc(N2CCn3c(nc4cc(Cl)ccc43)C2)cc1
  A: 103; B: -18; C: x; D: x

> Cc1[nH]ccc(=O)c1OC(C)C(N)=O (configuration not stated)
  A: 108; B: 7; C: 104; D: 94

> N#CCc1ccc(NC(=O)C2CCCCC2)cc1
  A: 101; B: -10; C: 101; D: 97

> COc1cc2nc(N(C)CCCNC(=O)C3CCCO3)nc(N)c2cc1OC (configuration not stated)
  A: 113; B: -6&-11&-91&-7&-17; C: 85&100; D: 89&99

> Cc1nc2ccc(S(=O)(=O)NCC(=O)N(C)Cc3ccccc3)cc2s1
  A: 105; B: 6; C: 101; D: 94

> CCOC(=O)c1cc(S(=O)(=O)N(C)Cc2ccccc2)cn1C
  A: 103; B: x; C: 117; D: 98

> Clc1cccc(CNCc2ccc3nccnc3c2)c1
  A: 97; B: -81; C: x; D: x

> Cc1ccc(S(=O)(=O)Nc2cccc3ccccc23)cc1
  A: x; B: -6; C: 98; D: 72

Compounds from the list above that have bromine, in the order listed:
Short keys: A = GIV Gai3 FP; B = HCMV UL50-53 inh; C = Sa growth inh; D = Sa growth inh second temp
> CCOc1cc(CO)cc(Br)c1OCc1ccc(C(=O)O)cc1
  A: 101; B: -23; C: 79; D: 64

> O=c1[nH]c2cc3c(cc2c(=O)n1CCCc1nc(-c2cccc(Br)c2)no1)OCO3
  A: 105; B: -7; C: x; D: x
